High-throughput results as filed in PubChem.
Biofilm kill mix – mixture kills Candida albicans biofilm cells; inhibition, % at 7.6 µM; C. albicans biofilm persisters + clotrimazole, fluorescence viability; primary screen in compound mixtures of four per well; actives 0.02% (n = 120,000); AID 1242;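 active = inhibition above 30.3% in the primary screen of four-compound pools, then above 30% when the compound was retested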;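 note: compounds exposed to preformed 24 h biofilms for 48 h; the number belongs to the whole pool; some results filed as inactive read as strong as hits; inactives centre near 12; 0% = biofilm with clotrimazole alone and 100% = kill control; retested singly at about 60 µM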
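Assay system: C. albicans biofilms / Medium: RPMI/MOPS medium, pH 7.0 / Schedule: biofilm formation 24 h, compound exposure 48 h, 37 °C / Measured by: Alamar Blue fluorescence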
Numbers without * were called inactive.

Structure	Biofilm kill mix
CC(=O)Nc1cccc(S(C)(=O)=O)c1	5
COc1ccc(NC2c3ncccc3C(=O)N2Cc2cccs2)cc1 (stereo not given)	2
NC(=O)c1cc(Br)cc(C2CCCCC2)c1O	20
O=C(CCc1nc2ccccc2s1)OCc1ccccc1	11
CC(=O)NS(=O)(=O)c1ccc(NC(=O)c2cc(-c3cccs3)nc3ccccc23)cc1	14
O=C(Nc1ccc(Nc2ccncc2)cc1)c1ccc(Nc2ccnc3ccc([N+](=O)[O-])cc23)cc1	4
O=C(CCN1C(=O)C2C3CCC(C3)C2C1=O)Nc1ccc(Br)cc1 (stereo not given)	4
CCOC(=O)N1CCC(NS(=O)(=O)c2ccc(C#N)cc2)CC1	7
CCN(CC)S(=O)(=O)c1ccc(N2CCCCC2)c(NC(=O)c2ccncc2)c1	15
Cc1nn(CC#N)c(=O)n1-c1ccc(C(C)C)cc1	3
Nc1ccc(C(=O)OCC(=O)N2CCN(C(=O)c3ccco3)CC2)cc1[N+](=O)[O-]	26
Oc1ccc(-c2nncn2-c2ccccc2)cc1	5
S=C(NCc1ccc(Cl)cc1)NC1CCCCC1	17
N#C/C(=C\c1ccccc1)C(=O)Nc1nncs1	10
COC(=O)c1cccc(NC(=S)NCc2ccc(F)cc2)c1	5
Cc1ccc(CNC(=O)Nc2ccc(C)cc2)cc1	4
O=C(Cn1cc(C(F)(F)F)cc(Cl)c1=O)Nc1cc(Cl)cc(Cl)c1	6
O=c1c(Cl)c(Cl)cnn1-c1ccccc1	7
COc1ccccc1NC(=S)NC(NC(=O)C(C)C)C(Cl)(Cl)Cl (stereo not given)	18
O=C1C2C3c4ccccc4C(c4ccccc43)C2C(=O)N1Cc1ccccn1 (stereo not given)	20
CC(C)(C)NC(=S)NCc1ccncc1	14
Cc1ccc(-c2cc(=O)c3ccc(F)cc3[nH]2)cc1	17
CCC(=O)N(CC)c1nc(-c2cc(OC)ccc2OC)cs1	13
Cc1sc(N/N=C/c2cccs2)nc1-c1ccccc1	4
COc1cccc(CNC(=O)Cc2ccc(-n3c(=O)[nH]c4ccccc4c3=O)cc2)c1	11
CCc1cc2c(SCC(=O)NC(=O)c3cccn3C)ncnc2s1	0
Cc1ccc(-n2nc(C)cc2N)c(C)c1	15
O=C1N/C(=C\c2ccsc2)C(=O)N1Cc1ccc(F)cc1	8
O=C(NNS(=O)(=O)c1ccccc1[N+](=O)[O-])c1ccccc1[N+](=O)[O-]	21
COCCCNCCOCCOc1ccc(C)cc1Br	5

Looked up by compound from the list above, 7 records:
Structure	Biofilm kill mix
CC(=O)NS(=O)(=O)c1ccc(NC(=O)c2cc(-c3cccs3)nc3ccccc23)cc1	14
Cc1ccc(CNC(=O)Nc2ccc(C)cc2)cc1	4
NC(=O)c1cc(Br)cc(C2CCCCC2)c1O	20
O=C(Nc1ccc(Nc2ccncc2)cc1)c1ccc(Nc2ccnc3ccc([N+](=O)[O-])cc23)cc1	4
CCN(CC)S(=O)(=O)c1ccc(N2CCCCC2)c(NC(=O)c2ccncc2)c1	15
O=C(Cn1cc(C(F)(F)F)cc(Cl)c1=O)Nc1cc(Cl)cc(Cl)c1	6
O=C(CCc1nc2ccccc2s1)OCc1ccccc1	11

Further results
Structure	Biofilm kill mix
COC(=O)/C=C1/C(=O)N/C(=N\c2nc(C)cc(C)n2)N1c1ccc(OC)cc1	5
O=S(=O)(NCc1cccnc1)c1ccc2c(c1)OCCO2	6
Cc1ccc(OCC(=O)N(Cc2cccs2)C2CCS(=O)(=O)C2)cc1 (stereo not given)	19
O=C(Nc1ccc(S(=O)(=O)NCc2ccco2)cc1)C1CCCCC1	9
CC(C)c1ccc[n+](-c2nc([O-])sc2C=O)c1	22
COc1ccccc1/C=C/C=N/n1c(C)nnc1C	6
Oc1ccc2ccccc2c1/C=N/Nc1ccccc1	17
COc1cc(/C=C/C(=O)NCc2ccccn2)cc(OC)c1OC	-1
O=[N+]([O-])c1ccc(-c2ccc(/C=N/Nc3nc(N4CCCC4)nc(N4CCCC4)n3)o2)cc1	8
Cc1cc(N/N=C/c2ccc(O)c(C)c2O)nc(-c2ccccc2O)n1	12
COc1ccc(S(=O)(=O)Nc2ccc(N3CCOCC3)nc2)cc1	13
Cc1ccc(-c2csc(NC(=O)CCNC(=O)c3ccco3)n2)cc1	11
COc1ccc(-c2csc(NNC3=NCCCCC3)n2)cc1	-1
CC1CN(c2ccc([N+](=O)[O-])cc2C(=O)N2CCOCC2)CC(C)N1 (stereo not given)	6
O=C(Cc1cccs1)N=Nc1c(O)[nH]c2ccccc12	5
Cc1n[nH]c(=O)n1-c1ccc(OC(F)(F)F)cc1	3
CCn1ccnc1CN(C)Cc1nc(Cc2cccc(C(F)(F)F)c2)no1	13
CCN(CC)S(=O)(=O)c1cccc(C(=O)N/N=C(\C)c2cccs2)c1	30
COc1cccc2cc(C(=O)N(Cc3ccccc3)CC3CCCO3)c(=O)oc12 (stereo not given)	8
Clc1ccccc1C1CC(c2ccccc2)=Nc2ccccc2N1 (stereo not given)	15
O=C(CSc1n[nH]c(=O)[nH]c1=O)NCC1CCCCC1	12
CCCCCCCCCC(=O)OCC(O)CO (stereo not given)	2
Cc1nc([N+](=O)[O-])cn1CC(O)c1ccc(-c2ccccc2)cc1 (stereo not given)	5
CCn1c(N)c(C(=O)NC2CCCCC2)sc1=S	19
Cc1ccccc1NC(=O)CCCSc1nc2ccccc2s1	6
Cc1ccc(C)n1-c1ncc(Br)cn1	16
CC(C)NCC1CCc2cc(CO)c([N+](=O)[O-])cc2N1 (stereo not given)	18
CC(C)c1ccc(NC(=O)COc2ccccn2)cc1	8
C=CCSc1nnc(CNC(=O)c2ccc(Cl)cc2)n1CC	19
COC(=O)Cc1ccc(NC(=S)N2CCN(c3ccc(OC)cc3)CC2)cc1	10

Carrying on.
Structure	Biofilm kill mix
COc1ccc(C(=O)C[n+]2ccccc2C)cc1	12
O=c1[nH]nc(SCc2nnc(-c3cccc(Cl)c3)o2)n1C1CCCCC1	7
O=C(NCc1ccc(Cl)cc1)c1ccc(CSc2nc3ccncc3[nH]2)cc1	17
COc1ccc(CNC(=O)CSc2ncnc3ccccc23)cc1OC	14
COc1ccc(C(=O)C2CCCN(Cc3cccn3-c3nccs3)C2)cc1F (stereo not given)	19
C/C(=C\C(=O)c1ccccc1)Nc1ccc2c(c1)OCO2	17
O=C(CC1C(=O)NCCN1Cc1c(F)cccc1Cl)NCCCn1ccnc1 (stereo not given)	5
COc1ccc(C2NCCn3cccc32)cc1 (stereo not given)	9
CN(CCC#N)C(=O)COC(=O)c1c2c(nc3ccccc13)/C(=C/c1ccco1)CC2	5
CN(C[C@@H](CC1CCCCC1)N(C[C@H](Cc1ccccc1)N(CCc1ccccc1)N=O)N=O)N=O	19
CCCCc1ccc(C2C3=C(CC(C)(C)CC3=O)NC3=C2C(=O)c2ccccc23)cc1 (stereo not given)	10
COc1cc(C(=O)N=c2sc3c(C)ccc(OC)c3n2C)cc(OC)c1OC	22
O=C(CNC(=O)c1ccccc1)NCC(=O)OCc1ccccc1Cl	8
Cc1ccc(OCC(=O)N(Cc2ccccc2)c2ccccn2)cc1	10
CC(=O)C(/C=N/c1cc(-c2ccc(C)cc2)nn1-c1ccccc1)=C(\C)O	-3
N#CC(=C=[N-])c1nc2ccccc2nc1-[n+]1cccc(NC(=O)c2cccs2)c1	13
Cc1ccc(N2C(=O)CC(N3CCN(C)CC3)C2=O)cc1 (stereo not given)	13
CC(C)CCN1C(=O)c2ccc(C(=O)Nc3c[nH]c(=O)[nH]c3=O)cc2C1=O	1
Cc1cc2nc(CCl)cc(=O)n2[nH]1	4
CCC(C)N(C)C1CCN(C(=S)Nc2cccc(SC)c2)CC1 (stereo not given)	11
CC1(C)CC(N2CCCC2)=CC(=[N+]2CCCCCC2)C1	-1
CCOC(=O)C1(CCCc2ccccc2)CCN(Cc2cnc(C)s2)CC1	22
Brc1csc2ncccc12	12
COc1ccccc1NC(=O)CSc1nc(N)c(C#N)cc1C#N	12
CCCCN=C1CC(C)(C)CC(=O)/C1=C(/O)CCCN1C(=O)c2ccccc2C1=O	-11
COc1cc(CN2CCNC(=O)C2CC(=O)N2CCCCO2)cc(OC)c1 (stereo not given)	15
CCn1cc(-c2ccnc3cc(C(=O)O)nn23)c(C)n1	13
CCC1Oc2ccccc2N(CC(=O)NCCc2ccc(OC)c(OC)c2)C1=O (stereo not given)	9
CCOC(=O)CCCNc1ccc([N+](=O)[O-])cc1[N+](=O)[O-]	-5
Cc1c(C=O)n(C)n(-c2ccccc2)c1=O	19

3 consecutive compounds from above:
Structure	Biofilm kill mix
CCC1Oc2ccccc2N(CC(=O)NCCc2ccc(OC)c(OC)c2)C1=O (stereo not given)	9
CCOC(=O)CCCNc1ccc([N+](=O)[O-])cc1[N+](=O)[O-]	-5
Cc1c(C=O)n(C)n(-c2ccccc2)c1=O	19

New compounds follow.
Structure	Biofilm kill mix
O=C(NNC(=O)C1C2CCC(C2)C1C(=O)O)c1cccc(Cl)c1 (stereo not given)	18
CC(C)CCN1CCN(Cc2ccc(C#CC(C)(C)O)s2)CC1CCO (stereo not given)	27
CN(c1ccccc1)S(=O)(=O)c1cccc(NC(=O)CSc2n[nH]c(N)n2)c1	16
Clc1ccc(SCCCN2CCCCC2)cc1	20
Cc1ccc(-n2cccn2)c(CN2CCCC(CNC(=O)c3ccc(F)cc3)C2)c1 (stereo not given)	-1
CC(Nc1nc(N2CCOCC2)nc2ccccc12)c1ccccc1 (stereo not given)	8
O=C(NCC1CCCO1)c1cccc(Oc2ccc([N+](=O)[O-])cc2Cl)c1 (stereo not given)	-3
NNc1cc(C(=O)O)ccc1Cl	24
Cc1ccc(-c2nn(C)c(=O)c3ccccc23)cc1S(=O)(=O)N1CCOCC1	2
O=C1/C(=C/c2cccc(O)c2)SC(=S)N1CC1CCCO1 (stereo not given)	5
CC(C)(C)c1ccc(C(=O)Nc2ccc(O)c3c(=O)cc(-c4ccccc4Cl)oc23)cc1	10
CCOc1ccc2nc(C)cc(Nc3cccc([N+](=O)[O-])c3)c2c1	3
CC1CCc2c(C(=O)NCc3ccccn3)csc2C1 (stereo not given)	8
COc1ccc(C)cc1S(=O)(=O)N(CC(=O)Nc1cccc([N+](=O)[O-])c1)c1ccccc1	10
CN1CCN(Cc2ccc(Sc3ccc(Cl)cc3)c([N+](=O)[O-])c2)CC1	18
CC1CCCCN1Cc1c(O)ccc2c(=O)c(-c3nc4ccccc4s3)coc12 (stereo not given)	8
O=C(O)Cn1nnnc1SCC(=O)Nc1ccccc1F	-6
CCN(CCn1cccn1)Cc1c(C(=O)N2CCCCCCC2)nc2ccc(Cl)cn12	11
CCNC1CCS(=O)(=O)C1 (stereo not given)	17
CCOc1ncccc1C(=O)OCC(=O)N1CCc2ccccc21	15
O=C(CSc1nnc(SCc2cccc3ccccc23)s1)Nc1ccc(C(=O)O)cc1	18
COc1ccc(Br)cc1C(=O)Nc1ccc(C(=O)O)cc1	11
Cc1c(C(=N)C(C#N)C#N)c(=N)oc2c1ccc1ccccc12	15
C/C(CC(=O)Nc1ccc(F)cc1)=N\NC(=O)COc1ccccc1	4
COc1ccc(-n2cc(CNCCN3CCOC3=O)c(-c3ccccc3Cl)n2)cc1	15
CC(C)(CNC(=O)c1ccc(Cl)c(S(=O)(=O)N2CCc3ccccc3C2)c1)N1CCOCC1	10
CN(C)c1ccc(CN(C(=O)c2ccc(Cl)c([N+](=O)[O-])c2)C2CCS(=O)(=O)C2)cc1 (stereo not given)	24
CC1CC(C)C[N+](=C2C=C(N3CCCC3)CC(C)(C)C2)C1 (stereo not given)	8
C=CCOC(=O)c1c(C)nc2cc3c(cc2c1C)OCO3	10
O=C(c1ccc(O)cc1)c1ccc(C(=O)c2ccc(O)cc2)cc1	17

(continued)
Structure	Biofilm kill mix
CCC(=O)Nc1ccc(C(=O)NCCCn2ccnc2)cc1	8
COc1ccc(-c2csc(Nc3ncccc3C)n2)cc1	18
CCn1c(=S)[nH]c2scc(-c3cccs3)c2c1=O	6
O=C(CN1N=C(C(F)(F)F)CC1(O)c1ccc([N+](=O)[O-])cc1)c1ccccc1 (stereo not given)	-6
COc1ccccc1CNc1nc(S(=O)(=O)c2ccccc2)c(Cl)s1	23
CC(C)c1cc(-c2cc(C(=O)NCc3ccccc3)on2)nc(NCC2CC2)n1	5
CC1(C)C2CCC(C2)C1(C)NC(=O)CNCC1CCCCC1 (stereo not given)	23
Cc1ccc(-c2nn(-c3ccccc3)cc2/C=N/n2c(-c3cccs3)n[nH]c2=S)cc1	18
COc1ccc2[nH]c(C(=O)O)c(NC(=O)c3ccccc3[N+](=O)[O-])c2c1	14
COc1ccc(CCNC(=O)C(=O)NCc2cccs2)cc1OC	11
C/C(CC(=O)NC1CCCCC1)=N\NC(=O)c1ccccn1	11
COc1cc(C(=O)NC(C)c2cnn(-c3ccccc3C)c2C)cc(OC)c1OC (stereo not given)	17
CCCCCCC(C)OC(=O)Nc1cccc2ccccc12 (stereo not given)	13
COC(=O)CSc1nnc(CNc2nc(-c3ccccc3)cs2)n1C	2
COc1cc(C2C(N3C(=O)c4ccccc4C3=O)C(=O)N2c2ccc(C)c(C)c2)cc(OC)c1OC (stereo not given)	15
COc1ccc(NC(=O)c2cc(S(=O)(=O)N3CCCC3)oc2C)cc1	-2
O=C1C2C(c3ccccc3)C=CC(c3ccccc3)C2C(=O)N1c1ccccn1 (stereo not given)	18

Only part of the results is shown. The share of hits here may be higher or lower than overall.
